gsp antagonist: antagonists of gsp mutant (McCune-Albright syndrome); gsp-mutant cells, cAMP HTRF, 30 min; control for the full effect not named in the record; Potency, µM (doses to about 76.9 µM), inactives show top-dose activity change, negative = inhibition, actives largely listed as inhibitors; 340,000 compounds, 0.4% hits; AID 624288; active = falling curve of any shape with a large fitted effect; inconclusive = falling curve, mostly with a smaller effect; inactive = flat or rising curve; cell line not stated here;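 also: intracellular cAMP measured with PDE inhibitor Ro 20-1724 present during compound exposure; potency is read from the fitted curve at half-maximal effect; % is scaled to controls: 0 for no effect and ±100 for the full control effect; nearly all actives have a fitted effect of over 65% in size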
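HTRF cAMP read-out (cAMP-d2 plus anti-cAMP antibody-K in lysis buffer, 30 min RT). Before lysis, cells are exposed to compounds with […] for 30 min at 37C in DPBS containing Ca/Mg, BSA and Tween 20.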
gsp ag: agonists of gsp mutant (McCune-Albright syndrome); Potency, µM (top dose mostly 76.9 µM), for inactives: at the top dose activation (cAMP increase), hits mostly activators; gsp mutant cells, cAMP HTRF, 30 min; control for the full effect not named in the record; 340,000 compounds, 0.13% hits; AID 624287; active = well fitted activation curve with a large enough effect; inconclusive = small, poorly fitted or top-dose-only effect, or another doubt; inactive = no such curve, though single readings can be large or run the other way; cell line not stated here;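 also: phosphodiesterase inhibitor Ro 20-1724 added with compounds to block cAMP breakdown; potency is read from the fitted curve at half-maximal effect; nearly all actives have a fitted effect of over 60% in size; about a fifth of the inactives were tested at one dose only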
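Cells stably selected in G418 were plated at 2000/well, grown 16-24 hr, then given compounds in DMSO with the PDE inhibitor […] (300 uM solution added) for 30 min at 37C; cAMP was read by HTRF.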
D2 potentiator: positive allosteric modulators of human D2 dopamine receptor. 360,000 compounds, 0.23% hits. DiscoveRx D2 beta-arrestin cells, luminescence, 90 min; 100% = 57 uM dopamine signal. potentiation, % (concentration not given with the values). P14416; active = potentiation of 50% or more; inconclusive = 30% to 50%; inactive = 30% or less;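 also: tested on top of an EC20 dose of dopamine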
Target sequence (P14416 whole entry, looked up): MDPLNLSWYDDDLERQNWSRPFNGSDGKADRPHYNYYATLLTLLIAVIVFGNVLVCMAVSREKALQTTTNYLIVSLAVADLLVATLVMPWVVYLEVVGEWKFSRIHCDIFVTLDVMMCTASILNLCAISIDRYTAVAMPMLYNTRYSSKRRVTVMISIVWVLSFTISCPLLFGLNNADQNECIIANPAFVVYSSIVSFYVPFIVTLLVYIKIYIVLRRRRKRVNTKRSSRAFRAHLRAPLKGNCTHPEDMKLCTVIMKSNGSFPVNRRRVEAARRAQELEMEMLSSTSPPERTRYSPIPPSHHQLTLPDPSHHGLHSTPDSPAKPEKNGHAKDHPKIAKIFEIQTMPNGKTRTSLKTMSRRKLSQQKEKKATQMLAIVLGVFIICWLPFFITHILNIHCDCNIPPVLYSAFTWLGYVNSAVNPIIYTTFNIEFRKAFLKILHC
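PathHunter beta-arrestin assay in DiscoveRx D2 cells. Compounds were added with an EC20 of dopamine (50 nM final) for 90 min at 37 deg C. Luminescence was read 1 h after detection reagent, with 57 uM dopamine as the EC100 control.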
TRPV1 potentiator: potentiators of human vanilloid receptor 1 (TRPV1); potentiation, % at 8.33 µM; Q8NER1; AID 540277; TRPV1-expressing cells, Fluo-8 calcium influx, capsaicin EC20 potentiation; host cell line not named in the record; control for the full effect not named in the record; 320,000 compounds, 0.02% hits; active means potentiation above 80%; inconclusive means 30% to 80%; inactive means below 30%; also: 0% is about no effect
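Cells expressing TRPV1 were dye-loaded with Fluo-8 and read kinetically: 10 s baseline, 3 min after compound (agonist portion), then 2 min after EC20 capsaicin (allosteric enhancer portion). Calcium-bound dye fluorescence at 480/520 nm.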
ClpP mod: qHTS Assay for Activators of ClpP | ATP-dependent Clp protease proteolytic subunit (Bacillus subtilis (strain 168)), P80244 | purified B. subtilis ClpP, FRET peptide cleavage, 20 min | Potency, µM (top dose mostly 57.5 µM), for inactives: at the top dose activity change, negative = active | 340,000 compounds, 1.9% hits | AID 651965, 2013; active = well fitted falling curve with a large enough effect; inconclusive = small, poorly fitted or top-dose-only effect; inactive = no such curve, though single readings can be large or run the other way; also: potency is read from the fitted curve at half-maximal effect; the source files actives as falling curves though it sought activators and does not explain the sign; nearly all actives have a fitted effect of over 65% in size; many hits overshoot -100%
Target sequence (P80244 whole entry, looked up): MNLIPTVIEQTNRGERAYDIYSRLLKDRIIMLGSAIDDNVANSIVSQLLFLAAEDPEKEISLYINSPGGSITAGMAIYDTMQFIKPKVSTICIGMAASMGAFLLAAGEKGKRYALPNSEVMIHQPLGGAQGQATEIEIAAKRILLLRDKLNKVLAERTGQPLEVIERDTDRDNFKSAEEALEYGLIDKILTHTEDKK
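FRET quenching reversal measured ClpP activation: 10 microg/mL B. subtilis ClpP at pH 8 with the FRET-FV decapeptide, read at 430 nm after 320 nm excitation. The 20-min minus 0-min signal was scaled between DMSO/no-enzyme wells and ADEP (5.8 microM final).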
Menin-MLL FL inh: menin-MLL binding inhibition, fluorescein peptide; Fluorescence polarization, fluorescein-MLL peptide displacement from menin; FP activity change, % at 61.4 µM; 290,000 tested, under 10 active; AID 1766; inconclusive = falling polarisation curve, or a change in total fluorescence; inactive = total fluorescence flat and polarisation flat or rising; no compound was filed as active; the % refers to the polarisation; negative = inhibition;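 also: % of control where 0% means no effect; inhibitors lower the polarisation; unlabelled MLL peptide was the positive control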
Sfp PPTase inh: Sfp phosphopantetheinyl transferase inhibition. Q9F4F7. Biochemical Sfp PPTase activity, qHTS. Potency, µM, inactives show max response, negative = inhibition, usual class: inhibitors. 310,000 compounds, 3.5% hits. AID 1490; active = well fitted inhibition curve with a large enough effect; inconclusive = small, poorly fitted or top-dose-only effect, or another doubt; inactive = no such curve, though single readings can be large or run the other way;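 also: the enzyme is Sfp with the accession as filed and its product quenches rhodamine fluorescence; potency is read from the fitted curve at half-maximal effect; 0% = enzyme reaction without inhibitor and -100% = no enzyme wells; top concentration of the series not given in the record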
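Buffer: 50 mM Hepes-Na pH 7.6, 10 mM MgCl2, 0.01% Nonidet P-40, 0.01% BSA. Enzyme 15 nM, pre-exposed to compound 15 min; substrates then added and fluorescence change tracked over 30 min.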
* = called active by the depositor; ? = inconclusive; . = not tested or not shown; & = joins results of further samples; ! = a repeat was not active; [ ] = another dose, or the depositor's remark.

canonical_smiles	gsp antagonist	gsp ag	D2 potentiator	TRPV1 potentiator	ClpP mod	Menin-MLL FL inh	Sfp PPTase inh
COc1ccc(-c2oc3ccccc3c2C(=O)OCc2ccccc2OC)cc1	-6.9%	.	-4.1	-7.3	4.2%	-4.6	2.3%
CCOc1ccc(NC(=O)Cn2nc(C(N)=O)c3ccccc3c2=O)cc1S(=O)(=O)N1CCCC1	20.3%	?	-2.7	-1.1	4.0%	.	.
CCn1c(SCC(=O)OCC(=O)N2c3ccccc3NC(=O)C2(C)C)nnc1-c1ccco1	-1.3%	-12.4%	-8.5	-3.9	-0.8%	-1.2	1.2%
CN(c1ccccc1)S(=O)(=O)c1ccc(NC(=O)c2ccc(F)cc2)cc1	-2.5%	23.8%	-8.2	.	.	.	.
COc1ccc(NC(=O)Nc2ccc3c(c2)CCC3)c(OC)c1	7.4%	25.7%	-4.8	-8.7	-1.4%	0.0	7.2%
COc1cc(OC)cc(C(=O)NC(=S)Nc2nnn(C)n2)c1	-2.0%	3.5%[15.4 µM]	-27.1	-8.6	-1.5%	2.2	35.5µM*
Cc1c(S(=O)(=O)N2CCc3ccccc3C2)c(=O)n(C)c(=O)n1C	-7.4%	-38.6%[inhibitor]	-7.3	4.6	-3.7%	0.4	15.8%
N#Cc1ccccc1NC(=O)CSc1nnc(-c2ccc(F)cc2)n1-c1ccccc1	-7.8%	-2.0%	-21.5	-2.5	-8.6%	-1.7	19.6%
Cc1cc(C(=O)NNC(=S)NC(=O)/C=C/c2ccccc2Cl)n[nH]1	11.5%	-3.2%	-8.5	1.2	-3.0%	3.1	6.6%
CCN1CCN(S(=O)(=O)c2ccc(Cl)c(C(=O)N(C)Cc3ccc(F)cc3)c2)CC1	8.9%	2.0%[15.4 µM]	-13.2	20.2	-7.2%	.	.
CCc1ccc(NC(=O)CSc2ccccn2)cc1	2.2%	0.2%[15.4 µM]	1.0	-7.6	.	-1.4	7.2%
Cc1noc(C)c1CSCC(=O)N(C)CC(=O)Nc1ccc(Cl)cc1	0.1%	0.1%	-9.3	-1.1	-1.2%	.	-1.5%
Cc1ccc(OCc2cc(C(=O)N(C)CCc3ccccc3)no2)cc1C	2.7%	?	-8.5	-18.5	1.0%	.	-9.2%
COc1ccc2[nH]c3c(NCc4ccco4)ncnc3c2c1	-23.1%	0.5%	-12.4	19.7	15.8µM*!	1.9	-23.9%
CCOC(=O)CS(=O)(=O)c1ccc(C(F)(F)F)cn1	-5.3%	-8.3%	-6.9	-2.7	1.2%	-1.2	22.7%
O=c1[nH]c2cc3c(cc2cc1C(c1nnnn1C1CCCC1)N1CCCc2ccccc21)OCCO3 (stereo unspecified)	20.0%	-32.5%[inhibitor]	25.1	-0.6	-1.9%	4.1	-21.0%
CC(C)(C)Nc1c([N+](=O)[O-])c(=O)sc2ccccc12	0.4%	-13.4%	-1.1	10.0	.	1.6	-3.7%
CCc1nnc(NC(=O)c2ccc3c(=O)n4c(nc3c2)CCCCC4)s1	-27.6%	1.1%[15.4 µM]	2.3	-3.0	.	-0.1	11.4%
COc1ccc2c(c1OC)C(=O)N(c1cccc(/C=C/C(=O)O)c1)C2	-2.6%	2.2%	1.9	13.0	-6.7%	-6.0	4.5%
O=C(COC(=O)CC1c2ccccc2CCN1S(=O)(=O)c1ccc(F)cc1)Nc1ccccc1 (stereo unspecified)	-12.8%	-11.6%	-29.9	-20.9	-0.7%	-1.7	8.7%
C/C(=N\NC(=O)c1cc(C(C)C)[nH]n1)c1ccco1	-2.1%	19.9%	-4.8	-2.3	-1.8%	2.2	4.9%
Cc1ccccc1-c1nc(S(=O)(=O)c2ccccc2)c(N2CCCC2)o1	3.3%	-7.5%	1.1	.	-28.2%	.	.
CCOCCCNC(=O)c1ccc(CN2CCc3ccccc3C2)cc1	.	?	-37.7	.	-1.1%	.	.
CCCc1nc2sc3c(c2c(=O)n1NC(=O)CCC(=O)O)CCCC3	5.3%	8.6%	-6.3	-15.7	-0.9%	3.8	21.8%
CCOC(=O)CSC1=C(C#N)C(C)C2=C(CCCC2=O)N1 (stereo unspecified)	-12.2%[15.4 µM]	-49.8%[inhibitor]	-10.1	.	-2.0%	5.6	?
CC(C)(C)NS(=O)(=O)c1ccc(CCC(=O)N2CCOCC2)cc1	8.3%	-5.4%	-15.9	-0.2	-3.2%	-0.6	-25.8%
COc1ccc(N2C(=O)CS/C2=N\C(=S)Nc2ccccc2)cc1	?	2.3%[15.4 µM]	-5.9	?	-0.9%	4.8	5.4%
Cc1nn(C)c(C)c1S(=O)(=O)N1CCC(C(=O)NCCC2=CCCCC2)CC1	3.7%	0.6%	-9.4	2.0	-2.0%	0.5	8.1%
CCCN(Cc1nnc(-c2ccccc2Cl)o1)C(=O)COc1ccc(Cl)cc1	?	-12.9%	1.3	-7.9	-2.6%	.	.
COc1ccc(CNC(=O)C2CCN(S(=O)(=O)c3ccc4c(c3)CC(C)N4C(=O)C3CC3)CC2)cc1 (stereo unspecified)	-6.9%	-2.9%	-2.5	10.1	-0.5%	.	5.4%

Remaining list, next part.
canonical_smiles	gsp antagonist	gsp ag	D2 potentiator	TRPV1 potentiator	ClpP mod	Menin-MLL FL inh	Sfp PPTase inh
COc1ccc(-c2nn(-c3ccccc3)cc2/C=N/n2cnnc2)cc1OC	4.4%	?	5.3	-14.0	-4.6%	4.4	9.5%
CCOc1ccc(-c2csc(N)c2C(=O)OC)cc1	-11.1%	-18.5%	-8.6	-2.1	2.1%	3.3	44.7µM*
COc1cc(SC)ccc1C(=O)Nc1cccc(C)n1	?	3.1%	1.9	-4.8	-2.8%	-1.4	19.9%
O/N=C/c1cn(-c2ccccc2)nc1-c1ccc2c(c1)OCCO2	17.5%	0.9%	-16.8	-12.5	-4.0%	3.4	0.1%
CCOC(=O)c1c(C)[nH]c(C(=O)COC(=O)CN2C(=O)C3CCCCC3C2=O)c1C (stereo unspecified)	-6.9%	-1.1%	-2.8	0.5	-2.7%	2.1	17.4%
COc1cc(C#N)ccc1OCC(=O)N1CCc2ccccc2C1	1.5%	-0.5%[15.4 µM]	-5.8	12.1	.	0.1	12.1%
CCCCC(=O)NCCc1ccc(OC)cc1	11.1%	11.1%	-7.0	-0.1	-2.6%	-1.8	8.1%
O=C(N/N=C/c1ccc([N+](=O)[O-])cc1)C(=O)N1CCCC1	-6.9%	?	-16.4	-2.1	.	2.7	16.6%
O=C(CSc1nc(NS(=O)(=O)c2ccccc2)cc(=O)[nH]1)Nc1ccccc1Cl	14.1%	-8.8%[15.4 µM]	-9.0	8.6	.	-4.6	3.5%
Cc1noc(NS(=O)(=O)c2ccc(NC(=O)/C=C/c3ccc(C(C)C)cc3)cc2)c1C	-15.8%	-5.4%	8.1	-1.4	1.8%	0.5	11.9%
C=C(C)COc1ccc(-c2ncncc2-c2ccccc2)c(O)c1	-10.6%	9.6%	-12.9	3.0	-1.1%	2.4	-1.2%
Cc1nc(-c2nnc(SCC(=O)Nc3ccc(Cl)cc3)n2C)cs1	-10.5%	-2.1%[15.4 µM]	-2.3	?	1.1%	-0.1	26.7%
CCN(CC)c1ccc(/C=N/N2CCN(Cc3ccc(Cl)cc3)CC2)c(O)c1	2.3%	-1.9%	-14.3	-23.3	-4.0%	-8.7	2.7%
C[C@H](NC(=O)c1nc[nH]c1C(=O)NCCCCCN)C(=O)OC(C)(C)C	5.3%	11.2%	-7.3	?	-0.1%	.	.
CCCn1c2ccccc2c2cnn(CC(=O)N3CCN(C4CCCCC4)CC3)c(=O)c21	0.8%	21.8%	-1.5	8.4	-16.3%	0.8	9.7%
COc1ccc(C(=O)NC2CCc3ccccc32)cc1OC1CCN(C(C)=O)CC1 (stereo unspecified)	-8.2%	-14.9%	3.3	0.6	-5.1%	.	3.7%
CCN1C(=NCCN2CCOCC2)N[C@@H](c2ccccc2)C(C(=O)OC)=C1C	4.3%	.	-9.0	9.1&-19.8	-3.9%	4.3&0.2	-4.0%&-3.5%
O=C(/C=C/c1ccco1)Nc1cccc(NC(=O)/C=C/c2ccco2)n1	-17.6%	6.3%	19.4	4.2	-2.3%	10.4	3.5%
CCOc1ccc(-n2c(SCC(=O)NCc3ccco3)nnc2-c2c[nH]c3ccccc23)cc1	-28.3%	-8.3%	-7.1	11.3	-4.0%	3.0	14.6%
Nc1c(/C=C2/C=CC(=O)C(O)=C2)c(=O)nc2sc(CC(=O)N3CCCC3)nn12	-3.2%	-2.8%	-0.9	15.8	0.4%	?	-27.8%
CCOC(=O)c1ccc(S(=O)(=O)NNC(=O)COc2ccccc2C)cc1	-3.9%	0.0%	18.5	-3.4	-10.6%	1.9	1.1%
Cc1cc(NC(=O)CSc2nnc(-c3cccnc3)n2C)no1	-5.8%	18.1%	-0.7	-3.9	-1.4%	1.3	8.2%
CCOC(=O)N1CCN(C(=O)c2oc3ccc(S(=O)(=O)N4CCOCC4)cc3c2C)CC1	-13.1%	-2.2%	-5.1	5.3	0.0%	-0.7	9.9%
O=C(CCC(=O)c1cccs1)Nc1ccc(N2CCCCC2)cc1	-13.6%	3.6%[15.4 µM]	5.1	17.5	.	-0.4	1.1%
CCC(C)(C)n1nnnc1C(c1ccc(O)cc1)N1CCc2ccccc2C1 (stereo unspecified)	9.8%	0.9%[15.4 µM]	-5.7	-2.9	.	-2.0	14.1µM*
CCCCCCCc1nc2nc(C)c(Br)c(=O)n2[nH]1	-16.7%	-16.7%	-33.6	13.0	1.1%	0.1	24.5%
